# Screening results (PubChem)
# eIF4H FP inh = human eIF4H binding inhibitors, primary screen, translation initiation inhibitor project, biochemical, uHTS, fluorescence polarization; Eukaryotic translation initiation factor 4H (Homo sapiens), Q15056; eIF4H fluorescence polarization binding assay; inhibition, % at 35 µM; hit rate 0.94% among 290,000; AID 2012, 2009;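 active means 50% or more with normal probe brightness, or confirmed in later tests; inconclusive means above 50% with abnormal brightness, or retests that disagree; inactive means below 50% or failed in later tests; about a fifth of its hits are not listed in these tables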;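 further: calls also rest on retests at 20 µM and on dose response follow-up; 0% = protein and probe with vehicle and 100% = probe without protein; strong numbers were not always called active; many hits fall short of the cut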
# CSC inhib = cancer stem cell viability inhibitors, primary screen, luminescence. inhibition, % at 7.5 µM. hit rate 1.1% among 300,000. cancer stem cell-like cells viability;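 active means mean at 75% or more and at least half the replicates too; inconclusive means mean and replicates disagree; tested in HMLE shEcad cells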;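 further: 0% = median of negative and 100% = median of positive control wells; the first replicate is given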
# HIV Env fusion = inhibitors of HIV-1 Env-driven cell-cell fusion, primary screen, HeLa-JRFL effector, CEM21 target cells, luciferase; inhibition, % at 12.3 µM; hit rate 1.1% among 360,000; AID 651610, 2012;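 active means mean replicate inhibition score of at least 50 and every replicate individually at or above 50; inconclusive means only one of the two criteria met; inactive means mean below 50 and not all replicates reaching 50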;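 further: 0% = plate neutral controls and 100% = maraviroc near 300 nM; one replicate is shown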
# PABP polyA inh = PABP poly(A) RNA binding inhibitors, primary screen, biochemical, fluorescence polarization, uHTS; Polyadenylate-binding protein 1 (Homo sapiens), P11940; inhibition, % at 35 µM; hit rate 1% among 290,000; AID 2014, 2009;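 active means 50% or more with normal probe brightness, or confirmed in later tests; inconclusive means above 50% with abnormal brightness, or retests that disagree; inactive means below 50% or failed in later tests; about a fifth of its hits are not listed in these tables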;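 further: calls also rest on retests at 20 µM and on dose response follow-up; controls were probe without protein and protein plus probe with vehicle; some compounds called inactive have numbers as strong as hits; many hits fall short of the cut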
# Target sequence (P11940 whole entry, looked up): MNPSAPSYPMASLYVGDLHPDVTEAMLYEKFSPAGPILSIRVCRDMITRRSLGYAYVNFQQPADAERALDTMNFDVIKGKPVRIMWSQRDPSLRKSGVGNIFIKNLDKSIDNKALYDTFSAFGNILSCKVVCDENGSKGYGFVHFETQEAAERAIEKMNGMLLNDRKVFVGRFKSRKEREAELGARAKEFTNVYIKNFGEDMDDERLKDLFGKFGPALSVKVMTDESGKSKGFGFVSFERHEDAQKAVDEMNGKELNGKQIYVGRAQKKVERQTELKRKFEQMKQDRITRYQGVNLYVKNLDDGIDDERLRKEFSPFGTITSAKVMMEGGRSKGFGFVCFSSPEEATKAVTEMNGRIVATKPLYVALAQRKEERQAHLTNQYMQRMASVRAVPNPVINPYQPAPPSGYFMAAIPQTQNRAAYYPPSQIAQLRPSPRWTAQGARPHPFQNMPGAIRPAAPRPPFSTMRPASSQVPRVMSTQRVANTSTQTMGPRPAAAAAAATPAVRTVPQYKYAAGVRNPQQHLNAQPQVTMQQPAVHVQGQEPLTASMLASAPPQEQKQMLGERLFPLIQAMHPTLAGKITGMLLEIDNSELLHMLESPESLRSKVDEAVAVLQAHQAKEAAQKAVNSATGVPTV
# UUG fidelity = modulators of yeast start codon fidelity, primary screen, whole organism, S. cerevisiae, single point, plate reader; activity score, % at 18.7 µM; hit rate 0.13% among 350,000; S. cerevisiae UUG-firefly luciferase reporter, luminescence/redox ratio;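 active means replicate mean at a twofold rise or more, about +100% in these data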;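 further: firefly luciferase made from a UUG start codon reports start codon fidelity; reporter light over untreated wells divided by growth signal over untreated wells; some hits fall short of that in this replicate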
# MT1-MMP act inh = blockers of MT1-MMP proenzyme processing, primary screen, HT1080 RFP-PRO-GFP cells, GFP/RFP fluorescence | Matrix metalloproteinase-14 (Homo sapiens), P50281 | GFP/RFP ratio fluorescence, overnight; percent of plate control window, DMSO zero | GFP/RFP ratio change, % at 20 µM | hit rate 0.061% among 360,000;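 active means GFP/RFP ratio change of at least 30% with cell ATP level not reduced by more than half and red fluorescence within 50% of control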; further: strong numbers were not always called active
#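 Assay system: HT1080 RFP-PRO-GFP cells. Benchmarks: DMSO vehicle wells and RFP-L50D-GFP reporter cell wells. Times: overnight cell settling, then overnight compound exposure, 37 °C, 5% CO2. Compound: 20 µM single dose, 1% DMSO. Read-out basis: GFP/RFP fluorescence ratio.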
# Rce1 inh = yeast Rce1p protease inhibitors, primary screen, biochemical, fluorescence, cell-free homogeneous | yeast membranes, quenched prenylated peptide cleavage fluorescence | calls only | hit rate 0.27% among 290,000;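 active means fall in fluorescence gain of 50% or more versus controls, with final raw signal at or below 3038400; inconclusive means same 50% fall but final raw signal above 3038400; inactive means fall in fluorescence gain under 50%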;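 further: plate controls were neutral control wells for no effect and wells lacking membranes for full effect; tested at 10 µM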
# eIF4H FP inh retest = second read-out of eIF4H FP inh, no call of its own (marks repeat the call); inhibition, %; compound at 20 µM; confirmation average;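 mean of two retest wells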
# PABP polyA inh retest = also measured in PABP polyA inh; calls as there; inhibition, %; compound at 20 µM; confirmation repeats;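 mean of two retest wells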
# MT1-MMP act inh RFP = also measured in MT1-MMP act inh; calls as there; RFP signal change, %; measured here: RFP expression control read;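 0 = vehicle wells; hits needed this value within 50% of zero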
# * hit, by the source's call; i = inactive; ? = inconclusive; nt = no result given; & = joins results of further samples. Some of the compounds tested; the hit share may differ from the screen's.
SMILES,eIF4H FP inh,CSC inhib,HIV Env fusion,PABP polyA inh,UUG fidelity,MT1-MMP act inh,MT1-MMP act inh RFP,Rce1 inh,others
CC(C)(C)n1nnnc1C(c1cccc(C#N)c1)N1CCCCCC1 (centres undefined),-6,18,94*,3,-6,nt,nt,i,
CCc1nc2c(OCc3ccc(Cl)cc3)cccn2c1N(C)C(=O)c1ccco1,nt,nt,28,nt,-17,-12,0,nt,
CC1(C(=O)NC2CCCC2)CCC(=O)N1CCCn1ccnc1 (centres undefined),nt,nt,2,nt,-5,2,2,nt,
COc1ccc(Cc2c(-c3ccc(OC)c(OC)c3)nc3c(C)cc(Br)cn23)c(C)c1,nt,nt,-27,nt,1,7,-25,nt,
COc1ccccc1CNC(=O)C(=O)NCC1OCCN1S(=O)(=O)c1ccc2c(c1)OCCO2 (centres undefined),-2,-6,0,2,-6,-4,4,i,
O=c1ccn(Cc2ccccc2Cl)cc1,-3,-13,nt,8,-20,-1,3,i,
C(=C\c1nnc(-c2cccs2)o1)/c1ccccc1,-3,-5,nt,-5,-19,-2,3,i,
COCc1c(C(=O)N/N=C(/C)c2ccc(OCc3ccccc3)cc2)nnn1-c1nonc1N,-9,-16,-35,-2,-15,-1,3,i,
CN(CC(=O)NCc1ccccn1)S(=O)(=O)c1ccccc1,-7,-3,nt,-11,nt,4,5,i,
CC(C)NC(=O)c1ccc(Sc2ccccc2)c([N+](=O)[O-])c1,1,30,nt,0,nt,-7,-8,i,
CC[C@H](C)C(C(=O)N1CCN(C(=O)OC(C)(C)C)CC1)n1cc(C(CO)NC(=O)OC(C)(C)C)nn1 (some centres undefined),1,9,-20,0,-2,1,3,i,
CC[C@@]1(C(=O)OC)N[C@H](CN(C)S(=O)(=O)c2ccc(C(C)(C)C)cc2)[C@@H]2C(=O)N(Cc3ccccc3)C(=O)[C@@H]21,nt,-7,-25,nt,2,1,5,nt,
Cc1ccc(-c2ccccc2)n1-c1cccc(C(=O)O)c1,0,-6,-7,5,nt,-3,0,i,
CC(C)CNC(=O)CC(=O)N/N=C/c1cccs1,-6,-6,17,-2,nt,2,4,i,
CC(CCN1CCN=C1N(C)C)c1ccccc1 (centres undefined),nt,-4,-21,nt,-20,-1,0,nt,
COc1ccc(C(=O)N/C(=C\c2cn(S(=O)(=O)N(C)C)c3ccccc23)C(=O)N2CCN(C)CC2)cc1,3,-2,8,-4,-1,-1,0,i,
COc1ccc(OC)c(C(c2nnnn2CC2CCCO2)N2CCN(C)CC2)c1 (centres undefined),-10,0,nt,3,-8,-4,7,i,
O=c1cc(CO)oc(CN2CCN(CCO)CC2)c1O,0,-5,-10,-9,-11,-1,9,i,
Cc1ccccc1OCc1nnc(SC(C)C(=O)O)n1-c1ccccc1 (centres undefined),nt,nt,-4,nt,-13,-1,2,nt,
CCN(CC(=O)NCc1ccc(Cl)cc1)C(=O)CSc1ccc(Br)cc1,5,7,50,6,9,-3,-7,i,
COc1ccc(CNC(=O)CN(c2ccccc2)S(=O)(=O)N(C)C)cc1,-8,-1,3,-7,nt,-1,1,i,
Cc1cc(C(=O)COC(=O)CN(C)S(=O)(=O)c2ccc(Cl)cc2)c(C)n1Cc1cccs1,-2,nt,-42,-8,-17,-2,9,i,
COCCNc1nc(NCc2ccc(NC(C)=O)cc2)c2sccc2n1,nt,nt,-26,nt,-3,4,5,nt,
COc1ccccc1NC(=O)CN1CCC(C(=O)c2ccc(F)cc2)CC1,-1,20,-26,-1,-15,0,-5,i,
COc1ccc(Cl)cc1NC(=O)N1CCN(C2CCCCC2)CC1,-1,3,nt,-5,-1,2,-1,i,

# Next structures:
SMILES,eIF4H FP inh,CSC inhib,HIV Env fusion,PABP polyA inh,UUG fidelity,MT1-MMP act inh,MT1-MMP act inh RFP,Rce1 inh,others
CS(=O)(=O)c1ccc(Cl)c(NC(=O)CSC(=S)N2CCCC2)c1,-7,-29,12,1,-21,0,-1,i,
Cc1ccc(N(C(C)C(=O)Nc2cc(Cl)ccc2Oc2ccccc2)S(C)(=O)=O)cc1 (centres undefined),7,35,nt,7,-1,-22,-18,nt,
O=C(NCCCCc1ccccc1)C1CC(c2ccccc2[N+](=O)[O-])=NO1 (centres undefined),-12,-31,?,11,7,-2,-1,i,
O=C(CCC(=O)N1CCOCC1)c1ccc(F)cc1,-2,-13,-14,-2,nt,0,3,i,
O=C1OCCN1C(=O)[C@H]1[C@H](c2ccc([N+](=O)[O-])cc2)C(c2cccc(Cl)c2)=NN1c1ccc(Br)cc1,nt,nt,-10,nt,13,-2,1,nt,
CC(NC(=O)c1ccncc1)c1ccccc1 (centres undefined),-5,-29,-7,0,-7,1,4,i,
Cc1cc(=O)oc2c3c(cc(OCC(=O)Nc4cccnc4)c12)OC(C)(C)CC3,-6,-12,nt,-4,-20,1,-1,i,
COc1ccc(OCCCN2CCCCCC2)cc1,-10,3,21,8,-4,-1,-1,i,
O=C(Nn1c(SCc2cccc([N+](=O)[O-])c2)nc2ccccc2c1=O)c1ccccc1,-7,13,-28,-3,-12,-3,0,i,
O=C(Nc1ccc(F)cc1)C1CCN(C(=O)NCc2ccccc2)CC1,-1,0,-5,11,6,2,-1,i,
CCN1CCN(Cc2ccc(NC(=O)c3ccc(C)c(NC(=O)c4ccno4)c3)cc2C(F)(F)F)CC1,-1,-11,-5&41,-4,-7&15,-6&-9,-2&0,i,
CCc1ccc(C(=O)NN(C(=O)c2ccc(CC)cc2)C(C)(C)C)cc1,-3,-7,nt,-4,-17,0,-1,i,
O=C(c1ccc(N2CCCC2=O)cc1)N1CCOCC1,4,6,nt,1,2,-3,5,i,
Cc1ccc(C(=O)N(Cc2nc3ccccc3c(=O)[nH]2)C2CCCC2)cc1,-9,0,16,-7,nt,-5,-21,i,
CC(C)Cc1nnc(NC(=O)CN2C(=O)c3ccccc3C2=O)s1,5,-7,-12,3,-17,2,3,i,
CC(=O)Nc1ccc(OCc2cn(CC(=O)c3ccc(O)cc3)nn2)cc1,nt,nt,-29,nt,96*,2,4,nt,
O=C1N(c2ccc(Cl)cc2)C(c2ccc(Cl)cc2)N2CCCN12 (centres undefined),-5,-1,-11,-24,nt,1,1,i,
COc1ccc(OC)c(NC(=O)Nc2nc(C(C)N)cs2)c1 (centres undefined),nt,nt,-30,nt,-9,4,9,nt,
O=C1CC(c2ccccc2)CC(O)=C1C=Nc1ccc(Cl)cc1 (centres undefined),-4,23,-3,0,nt,3,-4,i,
CCN(CC)c1ccc(/C=C(/C#N)c2nc3ccc(C)cc3[nH]2)c(OC(C)C)c1,?,-18,nt,?,-17,-424,-19,i,
CC[C@@H](C)[C@@H]1CN([C@@H](C)CN2CCC[C@H]2CN2C(N)=NC[C@H]2CC(C)C)C(=N)N1CCc1ccc(Cl)c(Cl)c1,nt,1,15,nt,0,-1,2,nt,
CCN(CC)C(=O)CN(c1cc(Cl)ccc1OC)S(=O)(=O)c1ccc(C)c([N+](=O)[O-])c1,-3,nt,22,-8,-1,-4,1,i,
COc1ccc(N=Cc2c(O)c3ccccc3n2C(C)=O)cc1,36,7,-109,5,5,-84,3,i,
COc1ccc2[nH]c3c(Cl)ncnc3c2c1,-3,3,-4,-6,nt,-1,-2,i,
CCSC1=C(C#N)C(c2ccc(OC)c(OC)c2)CC(=O)N1 (centres undefined),-8,-5,nt,2,0,1,-1,i,

# The results go on.
SMILES,eIF4H FP inh,CSC inhib,HIV Env fusion,PABP polyA inh,UUG fidelity,MT1-MMP act inh,MT1-MMP act inh RFP,Rce1 inh,others
Fc1ccc(C2CCCN2Cc2nc(Cc3ccccc3F)no2)cc1 (centres undefined),-4,14,4,2,nt,3,2,i,
COc1ccc(/C=N/Nc2cc(C)nc(N3CCOCC3)n2)c(OC)c1,-19,-12,-2,-6,-10,4,6,i,
Cc1cccc(C)c1NC(=O)Cn1c(=O)n(CCCC(=O)NCc2ccco2)c(=O)c2sccc21,-1,-25,nt,-2,nt,2,0,i,
Cc1nn(Cc2cccc(C(=O)NCC(C)C)c2)c(C)c1Br,6,-20,27,2,-13,-1,-2,i,
Cc1ccc(S(=O)(=O)NC(=O)C2(C)CCN2C(=O)CCc2ccc(Cl)cc2Cl)cc1 (centres undefined),nt,nt,15,nt,-12,-1,1,nt,
CCC1CCC(NC(=O)Nc2cccc(OC)c2)CC1 (centres undefined),6,nt,-98,9,-8,-1,0,i,
Cc1ccc(C(=O)C(OC(=O)CNC(=O)c2ccc(Cl)cc2)c2ccccc2)cc1 (centres undefined),-13,-3,?,0,3,-2,3,i,
O=C(O)Cc1ccc(C(=O)c2ccccc2F)s1,-10,-13,-36,10,-6,-1,4,i,
COc1cc(Br)cc2cc(C(=O)NCC3CCCO3)c(=O)oc12 (centres undefined),-6,-10,-45,-5,-8,6,2,i,
O=CN1CCN(C(=S)NC(=O)c2ccc(Cl)cc2)CC1,-2,nt,nt,2,-25,-10,1,i,
COC(=O)CCCNC(=O)OCc1ccc([N+](=O)[O-])cc1,1,-7,nt,12,-5,2,9,i,
CCOc1ccc(S(=O)(=O)N(CC)CC)cc1NC(=O)c1ccc(N2CCCC2=O)cc1,-17,24,nt,-3,-14,-2,-3,i,
COC(=O)c1ccc(C2C(C(=O)c3cc4ccccc4o3)=C(O)C(=O)N2CCCN(C)C)cc1 (centres undefined),7,6,nt,6,6,0,7,i,
CCc1nnc(SCC(=O)NC2CC2)n1CC,-18,-8,27,-8,-12,2,-3,i,
Cc1ccc(-c2noc(CN(C)C(=O)c3ccoc3C)n2)cc1,-1,9,-9,5,-8,0,-2,i,
CCCCC(=O)NC(c1ccccc1)c1ccc2cccnc2c1O (centres undefined),21,110*,-40,4,-4,7,-6,nt,
Cn1c(=O)c2c(ncn2CC(=O)OCC(=O)Nc2ccccc2Cl)n(C)c1=O,2,-9,17,0,nt,-2,4,i,
Cn1c(Cc2ccccc2)nnc1SCC(=O)NC1CCCCC1,-19,8,nt,1,-14,7,7,i,
CCOC(=O)c1csc(NC(C)=O)n1,-10,-10,1,-4,nt,1,-2,i,
FC(F)(F)c1cc(CCN2CCNC[C@@H]2Cc2ccccc2)cc(C(F)(F)F)c1,nt,77*,-23,nt,-2,-1,-4,i,
CCC(CO)NCc1ccc(OCC(O)c2ccccc2)c(OC)c1 (centres undefined),-8,35,11,-3,-6,-3,2,i,
O=c1c2[nH]c3ccccc3c2ncn1Cc1cccnc1,-7,nt,-40,-1,-16,-1,-1,i,
O=C1NC(c2ccc(Br)cc2)Oc2ccccc21 (centres undefined),-7,-8,-147,-3,-3,-1,2,i,
Cc1cc(C)c(-c2c(O)c3c(n(C)c2=O)CC(C)(C)CC3=O)c(C)c1,3,-9,-32,55,nt,0,-5,i,eIF4H FP inh retest=-6;PABP polyA inh retest=4
